Bioassay records: PubChem, National Center for Advancing Translational Sciences (NCATS)
Menin MLL FP FL – inhibitors of human menin-MLL interaction, wild-type MLL peptide; AID 1766; FP activity change, % at 61.4 µM; Fluorescence polarization, fluorescein-MLL peptide displacement from menin; 290,000 tested, under 10 active; inconclusive = falling polarisation curve, or a change in total fluorescence; inactive = total fluorescence flat and polarisation flat or rising; no compound was filed as active; the % refers to the polarisation; negative = inhibition;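 also: % of control where 0% means no effect; inhibitors lower the polarisation; unlabelled MLL peptide was the positive control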
gsp agonist – agonists of gsp mutant (McCune-Albright syndrome) | gsp mutant cells, cAMP HTRF, 30 min; control for the full effect not named in the record | AID 624287 | hit rate 0.13% among 340,000 | Potency, µM (titrated, usually from 76.9 µM), for the others: at the top dose activation (cAMP increase), actives largely listed as activators; active = well fitted activation curve with a large enough effect; inconclusive = small, poorly fitted or top-dose-only effect, or another doubt; inactive = no such curve, though single readings can be large or run the other way; cell line not stated here;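 also: phosphodiesterase inhibitor Ro 20-1724 added with compounds to block cAMP breakdown; potency is read from the fitted curve at half-maximal effect; nearly all actives have a fitted effect of over 60% in size; about a fifth of the inactives were tested at one dose only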
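Cells in DMEM/10% FBS with G418 were pretreated with compounds in DMSO plus […] (300 uM stock) for 30 min at 37C. cAMP was measured by HTRF (cAMP-d2 plus anti-cAMP antibody-K) after 30 min at room temperature.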
ClpP mod – qHTS Assay for Activators of ClpP; hit rate 1.9% among 340,000; ATP-dependent Clp protease proteolytic subunit (Bacillus subtilis (strain 168)), P80244; AID 651965, 2013; Potency, µM (doses to about 57.5 µM), inactives show at the top dose activity change, negative = active; purified B. subtilis ClpP, FRET peptide cleavage, 20 min; active = well fitted falling curve with a large enough effect; inconclusive = small, poorly fitted or top-dose-only effect; inactive = no such curve, though single readings can be large or run the other way; also: potency is read from the fitted curve at half-maximal effect; the source files actives as falling curves though it sought activators and does not explain the sign; nearly all actives have a fitted effect of over 65% in size; many hits overshoot -100%
Target sequence (P80244 whole entry, looked up): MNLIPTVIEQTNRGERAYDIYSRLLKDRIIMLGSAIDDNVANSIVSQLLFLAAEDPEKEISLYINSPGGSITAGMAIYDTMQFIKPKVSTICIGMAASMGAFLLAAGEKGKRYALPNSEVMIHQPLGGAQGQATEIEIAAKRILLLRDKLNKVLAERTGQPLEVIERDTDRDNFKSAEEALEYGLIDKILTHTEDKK
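ClpP 10 microg/mL final, pH 8 Tris/KCl buffer with BSA, glycerol, Tween-20; compound pinned in; FRET-FV substrate; RT 20 min; Ex320/Em430; ΔFRET vs ADEP 5.8 microM, DMSO, no enzyme.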
gsp antag – antagonizes gsp, the McCune-Albright syndrome mutation; gsp-mutant cells, cAMP HTRF, 30 min; control for the full effect not named in the record; Potency, µM (titrated, usually from 76.9 µM), for inactives: top-dose activity change, negative = inhibition, usual class: inhibitors; hit rate 0.4% among 340,000; AID 624288; active = falling curve of any shape with a large fitted effect; inconclusive = falling curve, mostly with a smaller effect; inactive = flat or rising curve; cell line not stated here;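 also: intracellular cAMP measured with PDE inhibitor Ro 20-1724 present during compound exposure; potency is read from the fitted curve at half-maximal effect; % is scaled to controls: 0 for no effect and ±100 for the full control effect; nearly all actives have a fitted effect of over 65% in size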
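HTRF cAMP measurement after 30 min RT detection following 30 min, 37C compound treatment alongside […] (added as 300 uM solution) in G418-selected cells seeded at 2000/well and grown 16–24 h.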
D2 potentiator – human D2 receptor positive allosteric modulation; hit rate 0.23% among 360,000; DiscoveRx D2 beta-arrestin cells, luminescence, 90 min; 100% = 57 uM dopamine signal; P14416; potentiation, % (concentration not given with the values); AID 624464; active = potentiation of 50% or more; inconclusive = 30% to 50%; inactive = 30% or less;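 also: compound concentration not given in the record; tested on top of an EC20 dose of dopamine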
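PathHunter D2 cells, attached overnight at 37 deg C, received compound in DMSO plus dopamine at EC20 (50 nM final) for 90 min at 37 deg C. Beta-arrestin recruitment was read as luminescence after 1 h with detection reagent at ambient temperature.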
Sfp PPTase inh – blocks B. subtilis Sfp PPTase activity; Biochemical Sfp PPTase activity, qHTS; Potency, µM, without a hit: max response, negative = inhibition, usual class: inhibitors; hit rate 3.5% among 310,000; active = well fitted inhibition curve with a large enough effect; inconclusive = small, poorly fitted or top-dose-only effect, or another doubt; inactive = no such curve, though single readings can be large or run the other way;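 also: the enzyme is Sfp with the accession as filed and its product quenches rhodamine fluorescence; potency is read from the fitted curve at half-maximal effect; 0% = enzyme reaction without inhibitor and -100% = no enzyme wells; top concentration of the series not given in the record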
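Buffer: 50 mM Hepes-Na pH 7.6, 10 mM MgCl2, 0.01% Nonidet P-40, 0.01% BSA. Enzyme 15 nM, pre-exposed to compound 15 min; substrates then added and fluorescence change tracked over 30 min.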
TRPV1 PAM – enhances activation of the human vanilloid receptor TRPV1 | Q8NER1 | potentiation, % at 8.33 µM | hit rate 0.02% among 320,000 | TRPV1-expressing cells, Fluo-8 calcium influx, capsaicin EC20 potentiation; host cell line not named in the record; control for the full effect not named in the record; active means potentiation above 80%; inconclusive means 30% to 80%; inactive means below 30%; also: 0% is about no effect
Target sequence (Q8NER1 whole entry, looked up): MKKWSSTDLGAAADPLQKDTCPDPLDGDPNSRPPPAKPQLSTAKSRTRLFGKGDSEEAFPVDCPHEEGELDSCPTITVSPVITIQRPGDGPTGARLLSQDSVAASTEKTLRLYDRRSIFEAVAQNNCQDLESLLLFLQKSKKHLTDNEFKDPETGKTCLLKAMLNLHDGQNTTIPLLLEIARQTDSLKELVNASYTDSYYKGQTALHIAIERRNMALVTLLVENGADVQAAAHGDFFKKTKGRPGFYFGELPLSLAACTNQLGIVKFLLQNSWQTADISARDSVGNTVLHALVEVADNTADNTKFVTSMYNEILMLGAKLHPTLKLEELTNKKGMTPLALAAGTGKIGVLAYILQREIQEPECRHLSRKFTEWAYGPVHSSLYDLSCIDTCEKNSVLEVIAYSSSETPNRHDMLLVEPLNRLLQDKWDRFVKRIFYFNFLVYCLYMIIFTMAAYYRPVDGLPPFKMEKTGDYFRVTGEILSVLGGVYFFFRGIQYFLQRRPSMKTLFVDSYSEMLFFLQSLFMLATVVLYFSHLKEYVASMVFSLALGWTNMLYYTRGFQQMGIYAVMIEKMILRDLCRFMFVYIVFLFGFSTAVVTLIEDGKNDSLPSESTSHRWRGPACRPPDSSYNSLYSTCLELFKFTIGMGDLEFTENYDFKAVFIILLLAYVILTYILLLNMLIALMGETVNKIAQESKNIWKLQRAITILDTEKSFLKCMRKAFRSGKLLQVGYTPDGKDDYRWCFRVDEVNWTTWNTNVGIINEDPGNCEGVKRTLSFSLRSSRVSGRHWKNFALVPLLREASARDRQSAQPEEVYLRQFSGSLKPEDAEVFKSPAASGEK
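TRPV1-expressing cells were cultured overnight at 35.5C and loaded with Fluo-8 calcium dye for 40 to 90 min at room temperature. After a 10 s baseline, compound was added and calcium influx was read kinetically for 3 min (ex 480/em 520 nm).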
Numbers without * were called inactive; & = joins results of further samples; [ ] = dose if it differs, or a comment.

How did CC(=O)Nc1ccc2oc(C)nc2c1 do in these assays?
Menin MLL FP FL: -0.1; gsp agonist: 33%; gsp antag: 7%; D2 potentiator: -7; Sfp PPTase inh: 10%; TRPV1 PAM: 5

What do the screens show for `COc1ccc(/C=C(/NC(=O)c2ccco2)C(=O)N2CCCCCC2)cc1OC`?
gsp agonist: 9%[15.4 µM]; ClpP mod: -1.6%; gsp antag: 5%; D2 potentiator: -2; Sfp PPTase inh: 13%; TRPV1 PAM: 10

What do the screens show for `CCOC(=O)c1cnc2c(OC)cccc2c1Nc1ccc2c(c1)OCCO2`?
Menin MLL FP FL: 0.3; gsp agonist: 0%[15.4 µM]; ClpP mod: -0.9%; gsp antag: 3%; D2 potentiator: -7; Sfp PPTase inh: -14%; TRPV1 PAM: -23

Results for Cc1c2n(c3ccccc13)CCC2=O ?
Menin MLL FP FL: -0.9; gsp agonist: inconclusive; ClpP mod: 3.6%; gsp antag: -1%; D2 potentiator: -6; Sfp PPTase inh: -6%; TRPV1 PAM: 6

Results for COc1ccccc1CNC(=O)COC(=O)c1ccc(C(=O)c2ccccc2)cc1 ?
gsp agonist: 7%[15.4 µM]; ClpP mod: -1.3%; gsp antag: -2%; D2 potentiator: -14

What do the screens show for `O=C1CC(N2CCN(c3ccccn3)CC2)C(=O)N1c1ccc(Cl)cc1` (stereo not given)?
Menin MLL FP FL: -3.8; gsp agonist: -38%[inhibitor]; ClpP mod: -4.6%; gsp antag: -1%; D2 potentiator: -29; Sfp PPTase inh: -15%; TRPV1 PAM: -11

What do the screens show for `COc1cc(CN(C(=S)NCC(=O)O)C2CCCC2)cc(OC)c1OC`?
Menin MLL FP FL: -1.3; gsp agonist: inconclusive; ClpP mod: 0.8%; gsp antag: 18%; D2 potentiator: -1; Sfp PPTase inh: -16%; TRPV1 PAM: 5

What do the screens show for `Cc1cccc(NC(=O)CSc2nnc(-c3ccco3)o2)c1`?
Menin MLL FP FL: -1.7; gsp agonist: 3%; ClpP mod: -0.1%; gsp antag: 16%; D2 potentiator: 9; Sfp PPTase inh: 1%; TRPV1 PAM: -1

What do the screens show for `COc1ccc(C(=O)NNC(=O)CSc2nnc(-c3cccnc3)n2C)cc1`?
Menin MLL FP FL: 3.0; gsp agonist: 0%; ClpP mod: -1.2%; gsp antag: -1%; D2 potentiator: -11; Sfp PPTase inh: -6%; TRPV1 PAM: 3

Results for O=[N+]([O-])c1ccc(S(=O)(=O)NCC(c2cccnc2)N2CCc3ccccc3C2)cc1 (stereo not given) ?
gsp agonist: 10%[15.4 µM]; ClpP mod: -5.8%; gsp antag: 4%; D2 potentiator: 1; TRPV1 PAM: 21

What do the screens show for `Cc1ccc(NC(=O)N/C=C/c2ccccc2)cc1`?
Menin MLL FP FL: -1.4; gsp agonist: -5%; ClpP mod: -4.9%; gsp antag: 0%; D2 potentiator: -1; Sfp PPTase inh: 15%; TRPV1 PAM: -9

Results for COc1ccc(CNC(=O)CC(C)S(=O)(=O)c2ccc3c(c2)NC(=O)CO3)cc1 (stereo not given) ?
Menin MLL FP FL: -0.9; gsp agonist: 16%; ClpP mod: -1.9%; gsp antag: -6%; D2 potentiator: -3; Sfp PPTase inh: 19%; TRPV1 PAM: -4

How did CCOC(=O)N1CCN(S(=O)(=O)N2CCCC(C(=O)NCc3ccc(OC)cc3OC)C2)CC1 (stereo not given) do in these assays?
gsp agonist: inconclusive; ClpP mod: 3.1%&0.7%; gsp antag: 9%; D2 potentiator: -4; Sfp PPTase inh: 15%; TRPV1 PAM: 9

How did CCOC(=O)C1CCN(C(=O)c2cc(S(=O)(=O)N3CCCCCC3)ccc2OC)CC1 do in these assays?
gsp agonist: 1%; ClpP mod: -2.3%; gsp antag: 5%; D2 potentiator: -10; TRPV1 PAM: -6

What do the screens show for `Cc1ccc(C(=O)Oc2csc(=S)n2C(=O)c2ccc(C)cc2)cc1`?
Menin MLL FP FL: 1.8; gsp agonist: -26%; ClpP mod: 0.3%; gsp antag: -9%; D2 potentiator: -19; Sfp PPTase inh: 45µM*; TRPV1 PAM: -12

Results for CCOc1ccc(CCNC(=O)COC(=O)c2cccs2)cc1OCC ?
gsp agonist: -21%; ClpP mod: -4.7%; gsp antag: 10%; D2 potentiator: -9; Sfp PPTase inh: 24%; TRPV1 PAM: 7

What do the screens show for `COc1ccc(-c2nc3ccc([N+](=O)[O-])cc3o2)cc1`?
Menin MLL FP FL: 7.5; gsp agonist: -12%; ClpP mod: 1.1%; gsp antag: 9%; D2 potentiator: -18; Sfp PPTase inh: -4%; TRPV1 PAM: -6

What do the screens show for `OCCC#Cc1c(-c2ccsc2)sc2ccccc12`?
Menin MLL FP FL: 0.7; ClpP mod: inconclusive; gsp antag: -12%; D2 potentiator: -11; Sfp PPTase inh: 3%; TRPV1 PAM: -8

What do the screens show for `C[C@@H]1CN([C@H](C)CO)C(=O)CCCn2cc(nn2)CO[C@H]1CN(C)C(=O)Nc1cccc(C(F)(F)F)c1`?
gsp agonist: 5%; ClpP mod: -1.6%; D2 potentiator: -12

How did O=C(Cc1ccc(S(=O)(=O)N2CCOCC2)s1)Oc1ccc(F)cc1 do in these assays?
gsp agonist: -44%[15.4 µM]; gsp antag: -10%; D2 potentiator: -7; TRPV1 PAM: 8

What do the screens show for `CC(C)c1ccc(NC(=O)C(c2ccccc2)N2CCC3(CC2)OCCO3)cc1` (stereo not given)?
Menin MLL FP FL: 1.9; gsp agonist: inconclusive; ClpP mod: 0.7%; gsp antag: -3%; D2 potentiator: -15; Sfp PPTase inh: -9%; TRPV1 PAM: -2

How did CCOC(=O)c1c(OCCO)nn(-c2ccc(Cl)cc2)c1N do in these assays?
Menin MLL FP FL: 0.0; gsp agonist: -2%[15.4 µM]; gsp antag: -1%; D2 potentiator: -1; Sfp PPTase inh: 17%; TRPV1 PAM: -1

Results for Oc1ccc(/C=C/c2nc(-c3ccccc3O)n(-c3ccccc3)n2)cc1 ?
Menin MLL FP FL: 2.1; gsp agonist: 2%; ClpP mod: -22%; gsp antag: -20%; D2 potentiator: -4; Sfp PPTase inh: inconclusive; TRPV1 PAM: -18

What do the screens show for `Cc1ccccc1OC1C(=O)N(CC2CCCO2)C1c1ccc2c(c1)OCO2` (stereo not given)?
Menin MLL FP FL: 3.7; gsp agonist: 23%; ClpP mod: 0.6%; gsp antag: inconclusive; D2 potentiator: 6; Sfp PPTase inh: -15%; TRPV1 PAM: 1

Results for CCCCc1ccc(NC(=O)COc2ccc(C(=O)Nc3ccccc3OCC)cc2)cc1 ?
gsp agonist: 2%; ClpP mod: 58%; gsp antag: 3%; D2 potentiator: 7; Sfp PPTase inh: 3%; TRPV1 PAM: 1

Results for CC(C)(C)C(=O)/C(=C\c1ccc([N+](=O)[O-])cc1)n1cncn1 ?
Menin MLL FP FL: 0.5; Sfp PPTase inh: 14µM*; TRPV1 PAM: -2

Results for Cc1[nH][nH]c(=O)c1C=NCc1cccnc1 ?
Menin MLL FP FL: 1.1; gsp agonist: -27%; ClpP mod: 0.0%; gsp antag: 1%; D2 potentiator: 4; Sfp PPTase inh: 4%; TRPV1 PAM: 6

How did CCC1CCCCN1Cc1ccc(OC)c(C)c1C (stereo not given) do in these assays?
Menin MLL FP FL: 2.8; gsp agonist: 3%; ClpP mod: 0.4%; gsp antag: 2%; D2 potentiator: -11; Sfp PPTase inh: -3%; TRPV1 PAM: -1

Results for COC(=O)c1ccccc1NC(=O)NC1CCN(Cc2ccccc2)CC1 ?
Menin MLL FP FL: 3.2; gsp agonist: -29%; ClpP mod: 28µM*; gsp antag: 12%; D2 potentiator: -17; Sfp PPTase inh: 13%; TRPV1 PAM: -14

Results for COCC(=O)N(Cc1cc2cccc(C)c2[nH]c1=O)c1ccccc1 ?
Menin MLL FP FL: -1.7; gsp agonist: -105%[inhibitor]; gsp antag: 10%; D2 potentiator: 0; Sfp PPTase inh: 14%; TRPV1 PAM: -4

How did Cc1c(NC(=O)CSc2nc3ccc(Cl)cc3[nH]2)c(=O)n(-c2ccccc2)n1C do in these assays?
Menin MLL FP FL: 1.3; gsp agonist: 22%; ClpP mod: -0.2%; gsp antag: 10%; D2 potentiator: -4; Sfp PPTase inh: -7%; TRPV1 PAM: 8

What do the screens show for `COc1ccc(S(=O)(=O)N2CCOC2CNC(=O)C(=O)NCCCN2CCOCC2)cc1OC` (stereo not given)?
gsp agonist: 7%[15.4 µM]; ClpP mod: 1.0%; gsp antag: 13%; D2 potentiator: -13

What do the screens show for `COc1ccc(N(CC(O)CN2C(=O)NC(C)(C)C2=O)S(=O)(=O)c2ccccc2)cc1` (stereo not given)?
Menin MLL FP FL: 2.3; gsp agonist: -8%; ClpP mod: 6.3%; gsp antag: 4%; D2 potentiator: -3; Sfp PPTase inh: 24%; TRPV1 PAM: 15

Results for CCOc1ccc(N2C(=O)CC(N3CCN(c4ccc(F)cc4)CC3)C2=O)cc1 (stereo not given) ?
Menin MLL FP FL: 0.5; gsp agonist: 6%; ClpP mod: -1.0%; gsp antag: 1%; D2 potentiator: -9; Sfp PPTase inh: 18%; TRPV1 PAM: 6

How did O=CN1CCN(C(=O)Cc2ccc(Cl)cc2)CC1 do in these assays?
gsp agonist: -38%[inhibitor]; ClpP mod: -2.1%; D2 potentiator: -15

What do the screens show for `O=C(COC(=O)C1CC1)Nc1ccc(OC(F)F)cc1`?
Menin MLL FP FL: 1.4; gsp agonist: inconclusive; ClpP mod: -0.8%; gsp antag: 12%; D2 potentiator: -6; Sfp PPTase inh: 11%; TRPV1 PAM: -8

Results for O=C(C1CCC1)N1CCN(c2ccnc3cc(Cl)ccc23)CC1 ?
Menin MLL FP FL: 2.7; gsp agonist: 4%; ClpP mod: -2.2%; gsp antag: -20%; D2 potentiator: -16; Sfp PPTase inh: 5%; TRPV1 PAM: -35

How did CNC(=O)NC(=O)COC(=O)c1cccc(S(=O)(=O)N2CC3(C)CC2CC(C)(C)C3)c1 (stereo not given) do in these assays?
gsp agonist: -4%; ClpP mod: 0.3%; gsp antag: -8%; D2 potentiator: -9; TRPV1 PAM: -8
